Lassa entry inh – qHTS for Inhibitors of binding or entry into cells for Lassa Virus. Lassa virus pseudotype entry inhibition, cell reporter; control for the full effect not named in the record. Potency, µM (doses to about 37.9 µM), for the others: at the top dose activity change, negative = inhibition, actives largely listed as inhibitors. actives 1.2% (n = 300,000); active means well fitted inhibition curve with a large enough effect; inconclusive means small, poorly fitted or top-dose-only effect, or effect the other way; inactive means flat fitted curve, though single readings scatter; tested in HEK293 cells; also: % is scaled to controls: 0 for no effect and ±100 for the full control effect; nearly all actives have a fitted effect of over 50% in size; luciferase read-out
Cruzain noTriton – qHTS Assay for Promiscuous and Specific Inhibitors of Cruzain (without detergent) | purified cruzain, Z-FR-AMC fluorescence, no detergent | AID 1476, 2009 | Potency, µM, for inactives: max response, negative = inhibition, actives largely listed as inhibitors | actives 2.3% (n = 200,000);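 also: plate controls were enzyme without inhibitor for no effect and buffer without enzyme for full effect; nearly all actives have a fitted effect of over 40% in size; top concentration of the series not given in the record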
Target sequence (P25779 123-467 limits assumed): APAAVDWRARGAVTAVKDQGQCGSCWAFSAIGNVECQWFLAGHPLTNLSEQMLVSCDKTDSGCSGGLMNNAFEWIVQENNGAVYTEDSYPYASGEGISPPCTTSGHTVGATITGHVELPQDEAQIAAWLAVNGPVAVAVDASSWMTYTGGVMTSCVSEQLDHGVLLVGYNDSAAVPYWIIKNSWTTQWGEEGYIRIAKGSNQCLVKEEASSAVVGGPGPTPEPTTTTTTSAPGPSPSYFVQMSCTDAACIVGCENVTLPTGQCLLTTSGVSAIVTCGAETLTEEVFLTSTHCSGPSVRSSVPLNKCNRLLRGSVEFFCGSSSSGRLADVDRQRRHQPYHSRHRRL
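Detergent-free condition (0.00005% Triton X-100) in acetate buffer pH 5.5 with DTT. 1.5 nM enzyme and compound were pre-mixed 15 min, then 2 uM Z-FR-AMC substrate added; reaction progress from fluorescence change between first and third reads (60 s).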
Cruzain inh Det – qHTS Assay for Promiscuous and Specific Inhibitors of Cruzain (with detergent); purified cruzain, Z-FR-AMC fluorescence, 0.01% Triton; actives 0.43% (n = 200,000); Potency, µM, for the others: max response, negative = inhibition, actives largely listed as inhibitors; AID 1478, 2009; Cruzipain (Trypanosoma cruzi), P25779;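 also: plate controls were neutral wells for no effect and buffer without enzyme for full effect; nearly all actives have a fitted effect of over 40% in size; top concentration of the series not given in the record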
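Z-FR-AMC hydrolysis (2 uM substrate) by cruzain (1.5 nM) monitored kinetically at ex 360/em 450 nm after 15 min room-temperature compound exposure; 0.01% Triton X-100, pH 5.5, 5 mM DTT.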
MARV entry inh – qHTS for inhibitors of binding or entry into cells for Marburg Virus; Marburg virus pseudotyped entry inhibition, cell reporter; control for the full effect not named in the record; about a third of the inactives were read at about 46 µM; Potency, µM (top dose mostly 37.8 µM), for inactives: top-dose activity change, negative = inhibition, most hits filed as inhibitors; actives 1.8% (n = 300,000); AID 540276, 2011; active = well fitted inhibition curve with a large enough effect; inconclusive = small, poorly fitted or top-dose-only effect, or effect the other way; inactive = flat fitted curve, though single readings scatter; tested in HEK293 cells; about a fifth of its hits are not listed in these tables; also: % is scaled to controls: 0 for no effect and ±100 for the full control effect; luciferase read-out
SARS PLP yeast – qHTS of Yeast-based Assay for SARS-CoV PLP; Potency, µM (titrated, usually from 32.9 µM), inactives show at the top dose activity, positive = growth rescue; actives 0.19% (n = 330,000); S. cerevisiae expressing SARS-CoV PLpro, growth rescue; control for the full effect not named in the record; AID 485353, 2010; active means well fitted rising curve with a large enough effect; inconclusive means small, poorly fitted or top-dose-only effect; inactive means no such curve, though single readings can be large or run the other way; also: 0% is about no effect; nearly all actives have a fitted effect of over 55% in size; growth read by luminescence after 48 h
NS1 inh – qHTS Assay for Inhibitors of Influenza NS1 Protein Function | actives 0.4% (n = 270,000) | AID 2326, 2010 | S. cerevisiae slowed by influenza A NS1, growth recovery by OD600 | Potency, µM (doses to about 46.1 µM), inactives show at the top dose activity, positive = more growth; active means well fitted rising curve with a large enough effect; inconclusive means small, poorly fitted or top-dose-only effect; inactive means no such curve, though single readings can be large or run the other way; also: nearly all actives have a fitted effect of over 50% in size
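OD600 was taken as the measure of yeast growth restored by compound in an NS1-expressing S. cerevisiae strain. Cells had been washed out of glucose medium and diluted 1:100 into galactose -URA medium, pH 6.0.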
StopGo reporter – High Throughput Screening for Foot and Mouth Disease Virus Antivirals | human cells with a luciferase reporter of 2A StopGo recoding; control for the full effect not named in the record | Potency, µM (highest dose often 57.9 µM), without a hit: top-dose signal change, negative = less light | actives 1.2% (n = 410,000) | AID 1159524, 2015; active = well fitted falling curve with a large enough effect; inconclusive = small, poorly fitted or top-dose-only effect; inactive = no such curve, though single readings can be large or run the other way; tested in HEK293T cells; also: % is scaled to controls: 0 for no effect and ±100 for the full control effect; nearly all actives have a fitted effect of over 45% in size; luciferase light after 4 h
RE007 growth inh – qHTS Assay for Inhibitors of the HIV-1 protein Vpr; S. pombe RE007 Vpr strain, BacTiter-Glo ATP luminescence, 24 h; control for the full effect not named in the record; actives 0.21% (n = 360,000); Potency, µM (series often up to 92.2 µM), without a hit: top-dose activity change, negative = less growth; active = well fitted falling curve with a large enough effect; inconclusive = small, poorly fitted or top-dose-only effect; inactive = no such curve, though single readings can be large or run the other way;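 also: % is scaled to controls: 0 for no effect and ±100 for the full control effect; nearly all actives have a fitted effect of over 50% in size; the assay follows cell death caused by Vpr and the record does not say whether a fall means rescue or toxicity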
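Fission yeast strain RE007, carrying one chromosomally integrated HIV-1 vpr copy, was seeded at OD 0.01 in PMG+AL medium with 23 nL pinned compound. After 24 h at 30 °C and 99% humidity, viability was read by BacTiter-Glo luminescence.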
Active calls of the source: *; ? = inconclusive; . = no result given; & = joins results of further samples; [ ] = remark or other dose. Unless noted, calls follow the shape of the dose curve; as a rule, active = well fitted curve in the direction sought with a large enough effect; inconclusive = small, poorly fitted or top-dose-only effect, or another doubt; inactive = no such curve, though single readings can be large; an effect the other way counts as inactive or inconclusive. Potency is read from the fitted curve at half-maximal effect.

SMILES | Lassa entry inh | Cruzain noTriton | Cruzain inh Det | MARV entry inh | SARS PLP yeast | NS1 inh | StopGo reporter | RE007 growth inh
CC(C)(C)OC(=O)N1CCC(c2c(C(=O)NCc3ccco3)cnn2-c2ccccc2Cl)CC1 | ? | ? | -6.5% | . | . | . | -20.2% | .
COCCNC(=O)c1nn(-c2cc(OC)cc(OC)c2)c(=O)c2ccccc12 | -9.1% | -1.0% | 8.5% | 14.4%[46.1 µM] | 2.5% | -1.6% | -1.4% | 8.7%
Cc1ccccc1-c1nc(CN2CCC(C(=O)NC3CC3)CC2)c(C)o1 | 10.4%[46.1 µM] | . | . | 1.2%[46.1 µM] | -3.9% | -5.4% | -3.9% | 3.7%
CCCCCCCCC(=O)Nc1cc(C)ccc1OC | 27.8% | -0.9% | -7.0% | 0.8% | -25.6% | -4.6% | -8.7% | 2.9%
Cc1cccc2c1-c1sc(C(=O)NCCCN3CCc4ccccc4C3)cc1CO2 | . | . | . | . | -4.7% | 2.2% | -17.0% | -9.0%
O=C(NCc1nc2ccccc2[nH]1)C1=C[C@H](c2csc3ccccc23)C[C@H](OCc2ccc(CO)cc2)O1 | . | . | . | . | 4.5% | ? | -18.7% | 24.5%
CC(=O)N(c1ccccc1C)C1CCCC1 | 3.3% | 5.8% | -0.5% | -2.3% | 3.7% | ? | -9.3% | -14.0%
CC=C(CC)C1(CCC)C(=O)NC(=S)NC1=O | 9.5% | . | . | ? | . | . | -22.8% | 14.8%
Cc1ccc(OCCCCn2ccnc2C)c(C)c1 | -6.4% | . | . | ? | 0.7% | 0.7% | ? | -0.4%
Cc1nn(-c2ccccc2)c(-n2cccc2)c1C(=O)O | ? | -9.6% | 0.6% | 11.4% | -22.8% | -2.1% | 3.5% | 8.2%
CC(C)(C)c1ccc(C(=O)NCCC(=O)N2CCN(c3ncccn3)CC2)cc1 | 6.3% | 28.8% | 0.4% | 2.1% | 1.4% | -2.0% | -14.0% | -1.7%
O=C(Oc1ccc2c(=O)c(Oc3ccc4ccccc4c3)coc2c1)c1ccco1 | ? | ? | 2.6% | 0.2% | -3.8% | 1.4% | 4.0% | 12.1%
CN(NC(=O)/C=C/C(=O)O)c1ncc(C(F)(F)F)cc1Cl | -2.6%[46.1 µM] | . | . | -21.4%[46.1 µM] | -9.3% | . | -9.3% | -24.3%
C=CCC(O)(CC=C)C(C)N (configuration not stated) | . | . | . | . | 13.9% | -3.9% | -18.9% | 0.4%
COc1ccc(NC(=O)C2CCCN2C(=O)Nc2ccccc2)cc1OC (configuration not stated) | 0.1% | -3.2% | -0.1% | -1.9% | 6.3% | 9.7% | 10.5% | -6.9%
Cc1cccc(Cn2c(SCCN3CCCCC3)nc3c2c(=O)[nH]c(=O)n3C)c1 | . | . | . | . | -0.5% | 4.5% | -20.2% | -12.4%
Cc1cccc(NC(=O)CSc2nnc(NC(=O)c3ccc(S(=O)(=O)N4CCOCC4)cc3)s2)c1C | 10.1% | -11.2% | -0.8% | -6.2% | 9.9% | -4.9% | . | .
O=S(=O)(Nc1cccc(-c2cn3c(n2)SCC3)c1)c1ccc(F)cc1F | -4.2% | . | . | -21.1% | 4.0% | 18.6% | -1.8% | -7.5%
COc1ccc(-c2cc(=O)[nH]c(NCc3ccccc3)n2)cc1 | 12.8%[14.3 µM] | -5.1% | -9.3% | ? | 2.9% | 0.4%[9.22 µM] | 61.7%[activator] | -9.3%
CCCn1c(C)c(C(=O)c2ccc3ccccc3c2)c2ccccc21 | ? | ? | -5.7% | -35.8%&-35.8%&-35.8%&7.1%&-35.8% | . | ? | . | .
CCOc1ccc2[nH]c3c(N4CCC5(CC4)OCCO5)ncnc3c2c1 | ? | . | . | ? | -0.5% | -5.4% | -27.1% | 6.4%
C=CCNC(=S)N/N=C/c1ccccc1OCCOc1ccccc1 | -16.2%[46.1 µM] | . | . | ? | -10.4% | -13.0% | -8.6% | 3.3%
O=C(NNC(=O)C1CC(c2cccnc2)=NO1)Nc1ccccc1F (configuration not stated) | 6.7% | . | . | ? | -0.1% | . | -16.8% | -12.0%
CC1(C)CC(=O)C2=C(C1)c1c(ccc3ccccc13)NC2c1ccc(C(=O)O)cc1 (configuration not stated) | -7.8%[46.1 µM] | . | . | -3.4%[46.1 µM] | 3.2% | -5.8% | -13.3% | -15.5%
O=C(Cc1ccc(Br)cc1)N1CCN(C(=O)c2ccco2)CC1 | -3.5%[46.1 µM] | . | . | ? | 4.2% | -3.7% | 12.4% | 5.6%
CCN(CC)CCCNC(=O)c1ccc2nc(N3CCCCC3)sc2c1 | ? | 13.1% | -4.8% | ? | . | . | 36.9%[activator] | .
COC(=O)COc1ccc(NC(=O)c2ccco2)cc1 | 21.3% | . | . | -1.3% | 0.4% | 0.8% | 30.6%[activator] | -17.1%
CCCCn1ccc(=O)c2c(C(F)(F)F)nccc21 | 3.2% | -3.8% | 3.0% | -0.1%[46.1 µM] | . | 9.6% | ? | -1.3%
Cc1nc(-c2ccc(F)cc2)sc1CCNC(=O)C(=O)Nc1ccc2c(c1)OCCO2 | 9.3%[46.1 µM] | -3.2% | -0.5% | . | . | . | 0.0% | .
CC(C)C(OC(=O)c1nsc(Cl)c1Cl)C(=O)NCc1ccc2c(c1)OCO2 (configuration not stated) | 21.7% | -5.2% | -0.7% | 5.0% | 6.8% | 6.5% | 37.9%[activator] | 13.1%
COc1cccc(N2CCN(C3=NS(=O)(=O)C(c4ccc(C)cc4)=C3C)CC2)c1 | 28.7%[46.1 µM] | -8.7% | -5.8% | ? | . | . | 12.8% | .
CCCCn1c(=O)c(C(=O)c2ccccc2)nc2ccccc21 | 4.8% | 6.7% | -4.4% | 17.7% | 4.4% | -1.4% | -17.6% | -3.7%
COc1ccc(C(=O)N2CCC(C(=O)c3c(C)cc(C)cc3C)CC2)cc1 | . | . | . | ? | -2.1% | -9.5% | -23.1% | 0.3%
Cc1ccc(S(=O)(=O)NC2CCCc3ccccc32)cc1C (configuration not stated) | -1.7% | -1.5% | -8.0% | 12.7% | -9.5% | -4.4% | 25.0% | 3.3%
CCOc1ccc(Nc2cc(=O)n(C)c(=O)n2C)cc1 | 0.9% | -6.8% | 9.7% | -5.8% | 7.8% | -5.5% | 0.0% | 8.1%
c1ccc(CN2CCN(c3nc4ccccc4c4ccccc34)CC2)cc1 | -19.3% | 10.8% | -0.4% | -21.1% | -22.1% | -51.1% | -0.5% | 9.9%
CCOCCOc1nc2c(c(=O)n(C)c(=O)n2C)n1CCc1ccccc1 | -16.8% | -5.3% | -1.2% | -10.3% | ? | -16.4% | ? | -8.5%
CCCCSc1nnc2c(n1)OC(C(=O)c1ccccc1)Nc1ccccc1-2 (configuration not stated) | . | -5.4% | -1.6% | . | -3.1% | -0.7% | . | .
Cc1ccc(OC(=O)CCC(=O)Nc2ccc(Br)cc2)cc1 | 7.9% | 5.1% | -3.2% | 14.3% | -8.7% | 14.3% | -9.6% | .
COc1ccc(-c2cc(C(=O)N(C)Cc3ccc(OC)c(OC)c3OC)c3ccccc3n2)cc1OC | ? | . | . | ? | . | . | -5.2% | 1.4%
Cc1cccc(C(=O)Nc2nnc(S(=O)(=O)N(C)c3ccccc3C)s2)c1 | ? | -4.0% | -1.7% | . | . | . | -4.0% | .
CCOC(=O)C1=C(C(F)(F)F)Nc2ncnn2C1c1cc(OC)ccc1OC (configuration not stated) | 7.6% | -6.8% | -3.5% | ? | 9.1% | 12.6% | -9.1% | 4.6%
CC1(C)Cc2ccccc2C(NNC(=O)c2ccc(Br)o2)=N1 | -13.5% | . | . | 14.3% | . | . | -11.3% | 18.5%
C/C(=N\Nc1ccccc1)c1cccc(N)c1 | ? | . | . | 12.0% | -6.7% | 6.8% | 0.0% | 10.8%
NS(=O)(=O)c1ccc(OC(=O)CNC(=O)OCc2ccccc2)cc1 | -7.8% | . | . | 9.7% | . | . | -11.8% | 11.3%
CCc1ccc(-c2nc(CSCC(=O)NCCCN3CCCC3=O)c(C)o2)cc1 | 2.5% | ? | 3.6% | 1.8% | 0.9% | -2.1% | -7.3% | 15.6%
Cc1ccccc1-c1nnc(SCC(=O)N2CCCCC2)o1 | -22.2%[46.1 µM] | -2.1% | -1.9% | ? | . | . | 48.7%[activator] | .
CN(C)C(CNC(=O)c1ccc2c(=O)n(-c3ccccc3F)c(=S)[nH]c2c1)Cc1ccccc1 (configuration not stated) | 0.3% | . | . | ? | 0.3% | . | -12.4% | 9.8%
O=C(NCCC1CCCCN1S(=O)(=O)c1ccccc1)C(=O)Nc1ccc(F)cc1F (configuration not stated) | ? | . | . | -25.5% | 1.0% | . | -10.5% | 1.0%
COc1ccc2nc(C)cc(SCC(=O)N/N=C/c3ccc(O)cc3O)c2c1 | ? | 6.4% | -9.6% | ? | ? | 25.3% | ? | 16.2%
CC(C)CC(=O)c1c[nH]c(C(=O)NCCCN2CCOCC2)c1 | 1.2% | 0.1% | 2.6% | -0.4% | 5.6% | -2.1% | -11.3% | -10.5%
COc1ccc(S(=O)(=O)Nc2nnc(C(C)(C)C)s2)cc1 | ? | -1.6% | 1.7% | -1.7% | -4.2% | -0.5% | 41.9%[activator] | -29.2%
CC1(C)CC(=O)C2=C(C1)NCN(Cc1ccc3c(c1)OCO3)C2 | 2.8% | -5.3% | -2.0% | ? | 3.5% | -7.5% | -20.0% | -3.5%

High-throughput results as filed in PubChem BioAssay.
